Source: PubChem BioAssay
E coli growth: inhibitors of Escherichia coli growth | OD600, 23 h; hits give low values | OD600 absorbance (concentration not given with the values) | 330,000 tested, 0.21% active;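 active = OD600 absorbance below the run mean of sample wells minus 3.6 SD, in any replicate, cut at about 0.56 in these data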;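 also: stock transfer was 300 nL into about 60 µL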
UCH37 DUB inh: inhibitors of human deubiquitinating enzyme UCH37; purified proteasome/UCH37, Ub-AMC cleavage fluorescence; inhibition, % (concentration not given with the values); 330,000 tested, 0.33% active; AID 588478; Q9Y5K5;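 active = mean of two replicates above 20%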;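 also: 0% = compound-free wells with enzyme and 100% = wells lacking proteasome; stock transfer was 100 nL into about 20 µL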
Target sequence (Q9Y5K5 whole entry, looked up): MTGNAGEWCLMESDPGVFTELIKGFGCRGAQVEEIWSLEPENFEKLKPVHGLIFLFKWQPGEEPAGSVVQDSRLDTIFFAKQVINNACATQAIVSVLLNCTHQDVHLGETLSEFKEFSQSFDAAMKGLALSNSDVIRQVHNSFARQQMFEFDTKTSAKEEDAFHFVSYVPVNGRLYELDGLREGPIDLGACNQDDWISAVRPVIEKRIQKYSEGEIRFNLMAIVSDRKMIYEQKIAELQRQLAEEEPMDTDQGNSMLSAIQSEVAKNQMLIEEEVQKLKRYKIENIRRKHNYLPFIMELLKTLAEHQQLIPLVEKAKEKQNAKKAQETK
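Reagent: Ub-AMC substrate; assay system: Proteasome-associated human UCH37 deubiquitinase; controls: no-proteasome and no-compound wells; read-out: % inhibition of Ub-AMC cleavage fluorescence; timing: 30 min preincubation with enzyme, 25 min cleavage at room temperature; signal: AMC fluorescence from Ub-AMC cleavage, excitation 355 nm, emission 460 nm; buffer or medium: Tris-HCl pH 7.4 plus ovalbumin, ATP-MgCl2, DTT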
Starred values were filed as active, the others as inactive. Not all compounds are listed; rates above refer to the full screens.

| E coli growth | UCH37 DUB inh | Compound |
| --- | --- | --- |
| 0.69 | 3.1 | CCCOc1ccc(-c2c(C(=O)NN=CC3CC=CCC3)nnn2-c2nonc2N)cc1 (centres undefined) |
| 0.72 | 9.8 | O=C1N/C(=N\N=Cc2cccs2)SC1Cc1cccc(Cl)c1Cl (centres undefined) |
| 0.7 | -1.5 | CCOc1cc(C=NNC(N)=O)cc(Br)c1OCC(=O)Nc1ccccc1C |
| 0.69 | 12 | CC(=NN=C(N)SCc1ccccc1)C(C)(C)C |
| 0.69 | 3.4 | CC(CC(=O)Nc1cc(Cl)ccc1C)=NNC(=O)C(=O)N1CCCC1 |
| 0.74 | -2.6 | CON=C(C)c1ncc(C(F)(F)F)cc1N1CCOCC1 |
| 0.73 | 2.6 | O=C(COc1ccc(F)cc1)NN=Cc1cccc2cccnc12 |
| 0.63 | 1.7 | O=C(CN1CCN(Cc2ccccc2)CC1)NN=Cc1ccccc1F |
| 0.65 | -32 | CN(C)c1ccc(C=NNC(=O)c2cc(-c3ccc4c(c3)OCO4)n[nH]2)cc1 |
| 0.74 | -6.5 | COc1ccc(C(=O)Nc2ccccc2C(=O)NN=Cc2ccc(O)c(OC)c2)cc1 |
| 0.64 | 71* | COc1ccccc1N(N=C1Sc2ccccc2C1=O)C(C)=O |
| 0.67 | -1.0 | O=C(Nc1ccccc1C(=O)NN=Cc1ccccc1)c1ccco1 |
| 0.7 | 2.2 | Oc1ccc(C=NNc2nc(N3CCCCCC3)nc(N3CCCCCC3)n2)c(O)c1 |
| 0.7 | 2.6 | O=[N+]([O-])c1cccc(S(=O)(=O)NN=Cc2ccc(O)cc2)c1 |
| 0.66 | 12 | COc1cc([N+](=O)[O-])cc(C=NNC(=O)C(O)(c2ccccc2)c2ccccc2)c1O |
| 0.68 | -0.2 | COc1ccc(C(=O)NN=C(C)CC(=O)Nc2ccc3c(c2)OCCO3)c(OC)c1 |
| 0.71 | 2.2 | O=S(=O)(ON=C1CCCc2ccccc21)c1ccc(Cl)cc1 |
| 0.67 | 3.4 | COc1cc(C=NNS(=O)(=O)c2ccccc2)c(OC)c(OC)c1 |
| 0.67 | 0.6 | Cc1sc(NN=Cc2cccnc2)nc1-c1ccccc1 |
| 0.72 | 2.9 | COc1ccc(C(C)=NNS(=O)(=O)c2ccccc2)c(OC)c1 |
| 0.67 | -26 | CCOC(=O)c1c(-c2ccc(OC)cc2)csc1N=CC1C(=O)CCCC1=O |
| 0.73 | 3.4 | COc1cccc(NC(=S)NN=C2CC3CCC2(C)C3(C)C)c1 (centres undefined) |
| 0.75 | -35 | O=C(NN=Cc1ccc2ccccc2c1)c1ccc(COc2ccc3c(c2)CCC3)o1 |
| 0.66 | 5.7 | COC(=O)c1cnn(-c2ccc(F)cc2F)c1C=NNC(=S)NC(C)(C)C |
| 0.68 | 7.0 | CCOC(=O)c1c(N=Cc2cc(OC)cc([N+](=O)[O-])c2O)sc(C)c1C |
| 0.64 | 14 | O=C(NN=Cc1sc(=O)[nH]c1-[n+]1ccc2ccccc2c1)c1ccccc1[O-] |
| 0.69 | 1.4 | COc1cc(C=NNC(=O)c2ccccc2Cl)ccc1Oc1ccc([N+](=O)[O-])cn1 |
| 0.65 | 1.9 | Cc1ccc(C=NNC(=O)c2cccs2)s1 |
| 0.69 | 2.9 | O=C1Nc2ccccc2C1(O)CC(=NO)c1ccccc1 (centres undefined) |
| 0.71 | 0.8 | O=C(NN=Cc1cccc(F)c1)c1ccc(Cn2cc(Br)c([N+](=O)[O-])n2)o1 |
| 0.73 | -76 | CCOC(=O)c1cc(-c2csc(NN=Cc3ccccc3Cl)n2)on1 |
| 0.71 | 5.4 | O=C(NN=C1CCCc2ccccc21)c1cc([N+](=O)[O-])cc([N+](=O)[O-])c1 |
| 0.69 | 5.8 | CC(=NNC(=O)CC1C(=O)NN=C1C)c1cccs1 (centres undefined) |
| 0.69 | 4.0 | CN(C)c1ccc(C=NNC(=O)c2ccccc2)cc1 |
| 0.72 | 0.0 | Cc1ccc(-n2nc(C)c(C=NNC(=O)c3cccs3)c2Cl)cc1 |
| 0.68 | 1.9 | C(=NN1CCN(Cc2cccc3ccccc23)CC1)c1ccco1 |
| 0.69 | 2.1 | Cc1ccc(C=NN2CCN(Cc3cccc4ccccc34)CC2)o1 |
| 0.67 | 0.8 | CC(C)(C)C(Cn1cncn1)=NOC(=O)Nc1ccc(Cl)cc1 |
| 0.71 | 5.2 | CCC(=NNC(=O)CNC(=O)/C=C/c1ccc(OC)cc1)c1ccccc1 |
| 0.71 | 23* | CN(C)c1ccc(/C=[N+](\[O-])C(C)(C)C=NO)cc1 |
| 0.69 | 4.5 | O=C(O)COc1ccc(C=NNC(=O)Cc2ccc(Cl)cc2)cc1 |
| 0.68 | 1.9 | CC(C)=CCC/C(C)=C/C=NNC(=O)c1ccc([N+](=O)[O-])cc1 |
| 0.71 | 4.2 | CCCCCCCCCC(=O)NN=Cc1ccc(C)s1 |
| 0.65 | 0.8 | CC(=NNC(=O)C1(C)CC1(Br)Br)c1cccc(NC(=O)C2CCC2)c1 (centres undefined) |
| 0.68 | 3.6 | CC(=NNC(=O)c1cccc([N+](=O)[O-])c1)c1ccncc1 |
| 0.69 | 0.5 | COc1ccc(C=NNc2ncc(C(F)(F)F)cc2Cl)c(OC)c1OC |
| 0.72 | 2.4 | COc1ccc(O)c(C=NNc2nc(Nc3ccccc3)nc(-n3nc(C)cc3C)n2)c1 |
| 0.73 | 1.8 | CC(=NNC(=O)c1c(Cl)cnn1C)c1cccc(NC(=O)c2ccc(C)cc2)c1 |
| 0.67 | 3.9 | CC(Cn1nnc([N+](=O)[O-])n1)=NNC(=O)c1ccc(O)cc1O |
| 0.66 | 7.7 | Cc1sc2ncnc(NN=Cc3ccc(O)cc3)c2c1C |
| 0.65 | 3.7 | CC(=NNC(=O)c1nnn(-c2nonc2N)c1CN(C)C)c1ccco1 |
| 0.66 | -1.7 | CCOC(=O)Cc1csc(NN=Cc2cccc(Br)c2)n1 |
| 0.67 | 3.2 | CCC1(C)NC(=O)N(N=Cc2ccc(C)s2)C1=O (centres undefined) |
| 0.74 | 1.7 | O=C(NN=C/C(Br)=C/c1ccccc1)c1ccc([N+](=O)[O-])cc1 |
| 0.66 | 21* | O=[N+]([O-])c1cc(C=Nn2cnnc2)ccc1N1CCCC1 |
| 0.7 | -18 | Nc1c(Cl)c(Cl)nc(C(=O)NN=Cc2ccco2)c1Cl |
| 0.71 | 6.6 | COc1ccc(O)c(C=NN2CCCCC2)c1 |
| 0.75 | 5.1 | COc1ccccc1/C=C\C=Nn1c(-c2ccc(Cl)cc2)n[nH]c1=S |
| 0.68 | 5.3 | OC(=Cc1ccc2ccccc2n1)c1ccncc1 |
| 0.67 | 3.9 | O=[N+]([O-])c1ccc(O)c(C=NNc2ncnc3c2cnn3-c2ccccc2)c1 |

The list goes on.
| E coli growth | UCH37 DUB inh | Compound |
| --- | --- | --- |
| 0.71 | -3.6 | Cc1cccc(C(=O)ON=C2CCSc3ccc(C)cc32)c1 |
| 0.65 | 6.2 | CCOC(=O)C1CCCN(CC(O)=C(C#N)c2nc(-c3ccccc3)cs2)C1 (centres undefined) |
| 0.75 | -2.2 | NC(=NO)c1ccccc1-n1cccc1 |
| 0.63 | 0.1 | CCOc1cc(C=NNC(=O)c2cccc(S(=O)(=O)N3CCOCC3)c2)ccc1OCC(=O)N(C)C |
| 0.63 | -99 | Cc1occc1C(=O)NN=Cc1ccc(N(C)C)cc1 |
| 0.73 | 9.9 | COc1ccc(C=c2sc(=CC(=O)c3ccc(C)cc3)[nH]c2=O)c(OC)c1 |
| 0.61 | -4.0 | C(=NNc1nc2ccccc2[nH]1)c1c[nH]c2ccccc12 |
| 0.74 | -110 | COc1cccc(C=Nn2c(N)c(S(=O)(=O)c3cccs3)c3nc4ccccc4nc32)c1OC |
| 0.68 | 2.7 | CC(C)COc1ccc(C(=NO)c2ccccc2)cc1 |
| 0.72 | -15 | CCCc1ccc(OCc2ccc(C(=O)NN=Cc3cccnc3)o2)cc1 |
| 0.63 | 3.8 | CC(CCc1ccccc1)=NNC(=S)NCCc1ccccc1 |
| 0.61 | 2.3 | O=C(NN=Cc1ccc(Br)o1)c1cc([N+](=O)[O-])cc([N+](=O)[O-])c1 |
| 0.68 | 3.1 | O=C(NN=Cc1cccnc1)c1cc(-c2ccccc2OCc2ccccc2)n[nH]1 |
| 0.7 | 7.8 | COc1ccc(C=NNC(=O)CNC(=O)/C=C/c2ccco2)cc1OC |
| 0.53 | 4.4 | Cc1cc(=O)[nH]c(NN=Cc2ccccn2)n1 |
| 0.71 | 2.2 | O=C(NN=Cc1ccc(OC2CSC2)cc1)c1ccccc1 |
| 0.69 | 4.2 | O=[N+]([O-])c1ccc(C=Nn2cn[nH]c2=S)cc1 |
| 0.7 | 3.7 | Cc1c(N=C2SCC(=O)N2N=Cc2ccccc2)c(=O)n(-c2ccccc2)n1C |
| 0.56 | -16 | C#CCn1cc(C=NNc2nc3ccccc3[nH]2)c2ccccc21 |
| 0.69 | 3.1 | O=C(Cn1nnc2ccccc21)NN=Cc1cccs1 |
| 0.72 | 0.9 | O=C(NN=Cc1cccc(F)c1)c1ccc(-c2ccccc2)cc1 |
| 0.74 | 0.0 | COc1ccccc1NC(C)C(=O)NN=Cc1ccccc1OCc1cccc(Br)c1 (centres undefined) |
| 0.7 | 2.1 | ON=C1CCC/C1=C\c1ccco1 |
| 0.65 | 3.6 | CCSC(C)CC1CC(=NO)c2c(C)noc2C1 (centres undefined) |
| 0.66 | -90 | CCOC(=O)c1c(CC(C)C)csc1N=CC1C(=O)CCCC1=O |
| 0.69 | -0.4 | O=C(CNC(=O)c1ccc(S(=O)(=O)N2CCCC2)cc1)NN=Cc1ccco1 |
| 0.71 | -172 | Cn1c2ccccc2c2cc(C=NNC(=O)c3ccc(N)cc3)ccc21 |
| 0.72 | -4.7 | O=C1C2C3C=CC(C4CC34)C2C(=O)N1N=Cc1ccc(-c2cccc([N+](=O)[O-])c2)o1 (centres undefined) |
| 0.71 | 6.7 | COc1cc(C=NNC(=O)c2ccc(F)cc2)ccc1OC(=O)c1ccco1 |
| 0.77 | 8.0 | COc1ccccc1N1CCN(N=C/C=C\c2ccco2)CC1 |
| 0.73 | 1.5 | Cc1nn(-c2ccccc2)c(Cl)c1C=NO |
| 0.62 | 4.1 | COc1cc(C=NNC(=O)c2cn(-c3cccc(C)n3)cn2)ccc1O |
| 0.72 | -1.2 | CCCN(CCC)C(=O)C[n+]1cccc(C=NO)c1 |
| 0.68 | 8.9 | O=C(O)c1cc(NN=Cc2ccc3c(c2)OCCO3)ccc1Cl |
| 0.71 | -3.3 | COc1cc(C=NNC(=O)c2cc(-c3ccco3)nc3ccccc23)cc(OC)c1O |
| 0.71 | 4.5 | COc1ccc(O)c(C=NNC(=O)c2ccc(OCc3cccc(Br)c3)cc2)c1 |
| 0.65 | 3.4 | O=C(NN=Cc1cccnc1)c1ccc(Br)s1 |
| 0.71 | 8.1 | COc1ccc([N+](=O)[O-])cc1NC(=O)CC1SC(=Nc2cccc(C)c2C)N(N=C(C)c2ccc(C)cc2)C1=O (centres undefined) |
| 0.68 | 2.3 | CC(=NNC(=O)C(N)=O)c1ccc(NC(=O)c2cccs2)cc1 |
| 0.73 | 3.8 | CCc1ccc(N2CC(C(=O)NN=Cc3ccccc3)CC2=O)cc1 (centres undefined) |
| 0.64 | 0.2 | COc1c(C=NNC(N)=S)c(C)nn1-c1ccccc1 |
| 0.68 | 8.1 | O=S(=O)(NN=C/C=C/c1ccccc1)c1ccc(Cl)cc1 |
| 0.67 | 8.9 | N#Cc1c(N=Cc2ccc(-c3ccccc3C(=O)O)o2)sc2c1CCCC2 |
| 0.66 | 1.6 | CCn1c(C)nc2cc(C(=O)NN=Cc3ccccc3C)ccc21 |
| 0.68 | -4.0 | Cc1ccc(C(=O)Nc2cccc(C(=O)NN=Cc3ccc(O)cc3)c2)cc1 |
| 0.63 | -1.6 | NC(=O)NN=Cc1cn(CC(=O)Nc2ccc(F)cc2)c2ccccc12 |
| 0.71 | 2.0 | O=C(NN=C/C=C/c1cccc([N+](=O)[O-])c1)C(O)c1ccccc1 (centres undefined) |
| 0.71 | 2.1 | C=CCOc1ccc(C=NNC(=O)CC(=O)NC2CCCCC2)cc1 |
| 0.72 | 0.4 | O=S(=O)(c1ccc(NC(=S)NN=Cc2c3ccccc3cc3ccccc23)cc1)N1CCOCC1 |
| 0.67 | 1.6 | CCOc1ccccc1C=NNC(=O)CNC(=O)c1cccs1 |
| 0.62 | 0.1 | ON=Cc1cccnc1Sc1ccccc1 |
| 0.68 | 3.3 | Fc1ccccc1C=Nn1cnnc1 |
| 0.63 | 0.4 | NC(=NOC(=O)c1cccc(F)c1)c1cccc([N+](=O)[O-])c1 |
| 0.72 | 5.9 | CC(=NNC(=O)c1ccn(C)n1)c1ccc(NC(=O)C2CCC2)cc1 |
| 0.7 | 5.6 | Cc1ccccc1-n1c(SCC(=O)NN=Cc2sccc2C)nc2ccccc2c1=O |
| 0.7 | 5.1 | Cc1onc(-c2ccccc2)c1C(=O)NN=Cc1ccc(Br)cc1 |
| 0.69 | 2.4 | CCCC1C(=NO)CC(c2ccccc2)NC1c1ccccc1 (centres undefined) |
| 0.75 | 3.4 | CCCOc1ccc(C=c2sc3nc(-c4ccco4)nn3c2=O)cc1OCC |
| 0.69 | 12 | CC(/C=C/c1ccccc1)=NNC(N)=S |
